EPAC2 antag – human EPAC2 antagonism, validation | Q8WZA2 | EPAC2 Rap1B BODIPY-GDP exchange, fluorescence | Potency, µM (doses to about 112 µM), for inactives: at the top dose activity, negative = inhibition, usual class: inhibitors | 16,000 compounds, 1.7% hits; active = well fitted inhibition curve with a large enough effect; inconclusive = small, poorly fitted or top-dose-only effect; inactive = no such curve, though single readings can be large or run the other way;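 note: 100% = activation by cAMP agonist control; nearly all actives have a fitted effect of over 40% in size; the record reuses the description of the EPAC1 agonist screen; inactives centre near -10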
Target sequence (Q8WZA2 whole entry, looked up): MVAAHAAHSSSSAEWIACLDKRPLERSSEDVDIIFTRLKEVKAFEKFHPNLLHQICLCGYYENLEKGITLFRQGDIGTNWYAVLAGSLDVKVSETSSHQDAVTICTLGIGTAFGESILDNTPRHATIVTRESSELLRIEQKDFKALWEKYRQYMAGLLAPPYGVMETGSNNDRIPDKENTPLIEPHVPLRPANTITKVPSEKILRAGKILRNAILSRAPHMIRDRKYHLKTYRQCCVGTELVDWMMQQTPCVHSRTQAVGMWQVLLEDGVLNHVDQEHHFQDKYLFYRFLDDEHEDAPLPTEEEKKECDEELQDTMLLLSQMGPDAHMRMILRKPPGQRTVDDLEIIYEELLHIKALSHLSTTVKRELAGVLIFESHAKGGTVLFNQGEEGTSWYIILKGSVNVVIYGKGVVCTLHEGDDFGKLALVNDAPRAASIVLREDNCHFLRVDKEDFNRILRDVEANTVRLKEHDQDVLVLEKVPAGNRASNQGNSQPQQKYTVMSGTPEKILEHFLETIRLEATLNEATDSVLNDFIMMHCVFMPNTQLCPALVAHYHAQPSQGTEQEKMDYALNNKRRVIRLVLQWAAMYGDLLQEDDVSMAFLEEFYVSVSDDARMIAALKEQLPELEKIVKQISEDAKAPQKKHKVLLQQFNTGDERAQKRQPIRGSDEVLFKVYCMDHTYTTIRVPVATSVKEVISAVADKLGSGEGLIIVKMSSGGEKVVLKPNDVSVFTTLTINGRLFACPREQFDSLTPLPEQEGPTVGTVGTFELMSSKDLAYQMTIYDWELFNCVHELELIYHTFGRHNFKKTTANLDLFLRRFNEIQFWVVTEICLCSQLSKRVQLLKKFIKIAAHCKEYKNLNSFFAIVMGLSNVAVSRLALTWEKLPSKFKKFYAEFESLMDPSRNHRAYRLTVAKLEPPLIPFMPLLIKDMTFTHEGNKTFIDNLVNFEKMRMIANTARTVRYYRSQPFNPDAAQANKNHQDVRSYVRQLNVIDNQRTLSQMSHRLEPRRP
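Normalized against a 6.5 mM cAMP agonist control, compounds were tested on 100 nM EPAC2 exchanging Rap1B-bound BODIPY-GDP (250 nM) for 50 uM GDP. Fluorescence drop (ex 480, em 540 nm) was tracked at room temperature over 30 min at 5-min intervals.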
* marks the source's active call; other numbers are inactive results; ? = inconclusive; & = joins results of further samples; [ ] = remark or other dose. Potency is the fitted concentration of half-maximal effect. Only part of the results is shown (hit frequency here may not be typical).

Molecule,EPAC2 antag
CC(N)(COP(=O)(O)Oc1ccccc1)C(=O)O (centres undefined),-4%
C=CCN1CC[C@]23c4c5ccc(O)c4O[C@H]2[C@@H](O)C=C[C@H]3[C@H]1C5,24%
NCC(O)c1cccc(O)c1 (centres undefined),-5%
COCC(C)N(C(=O)CCl)c1c(C)csc1C (centres undefined),-6%
C/C(=C\C=C/[C@@H](C)C(=O)O)[C@H]1CN[C@H](C(=O)O)[C@@H]1CC(=O)O,-20%
O=C1c2ccccc2C(=O)C1C(=O)C(c1ccccc1)c1ccccc1,79µM*
O=C/C=C/c1ccccc1,-15%
CC1N=C(N)OC1c1ccccc1 (centres undefined),18%[239 µM]
CCOC(=O)NC(C)(C)Cc1ccc(Cl)cc1,-6%
Fc1ccc(C(OCCN2CCN(C/C=C\c3ccccc3)CC2)c2ccc(F)cc2)cc1,-36%
CC(=O)Oc1c2c(c(CC=C(C)C)c3c1C(=O)C1=CC4CC5C(C)(C)OC(C/C=C(\C)C(=O)O)(C4=O)[C@]15O3)OC(C)(CCC=C(C)C)C=C2 (some centres undefined),71µM*
Cc1[nH]c2ccc(O)cc2c1CCN,9%&-12%&-19%
CNCCc1c[nH]c2ccc(O)cc12,13%&-1%
C#CCOS(=O)OC1CCCCC1Oc1ccc(C(C)(C)C)cc1 (centres undefined),-26%
O=C(Oc1ccccc1)N1CCC2(CCN(Cc3nccs3)CC2)CC1,-13%
CCCN(CCC)[C@@H]1CCc2ccc(O)cc2C1,-11%&-11%
COC(=O)[C@]1(C)CC[C@@]2(C)CC[C@@]3(C)C4=CC=C5C(=CC(=O)C(O)=C5C)[C@@]4(C)CC[C@@]3(C)C2C1 (some centres undefined),-14%
Cn1cc(C(=O)C(=O)N[C@H]2CN3CCC2CC3)c2ccccc21,-3%
CC(CO)NC(=O)C1C=C2c3cccc4[nH]cc(c34)C[C@H]2N(C)C1 (some centres undefined),-4%
CN(C)CCc1c[nH]c2ccc(O)cc12,22%[239 µM]
O=C(N/N=C/c1ccc([N+](=O)[O-])o1)c1cc([N+](=O)[O-])cc([N+](=O)[O-])c1O,?
O=C1CC[C@]2(O)C3Cc4ccc(O)c5c4C2(CCN3CC2CC2)C1O5 (some centres undefined),-14%
CN1CC[C@@]2(c3cccc(O)c3)Cc3nc4ccccc4cc3C[C@H]2C1,-17%
COc1ccc(NC(=O)N2CCCC3(CCN(C(=O)Oc4ccccc4)CC3)C2)cc1,-13%
CC(=O)OC1C[C@@]2(C)C(c3ccoc3)C[C@H]3O[C@@]32[C@@]2(C)C(=O)C(O)=C3C(C)(C)C(=O)C=C[C@]3(C)C12 (some centres undefined),-9%

(cont.)
Molecule,EPAC2 antag
Fc1ccc(C(OCCN2CCN(CCCc3ccccc3)CC2)c2ccc(F)cc2)cc1,?
O=C(Oc1ccccc1)N1CCC[C@@]2(CCN(Cc3ccccc3)C2)C1,-24%
COCC#CCN1CCCCC1c1cccnc1 (centres undefined),5%
C[C@@H]1O[C@@H](O[C@H]2CC[C@]3(C=O)C4CC[C@]5(C)[C@@H](C6=CC(=O)OC6)CC[C@]5(O)[C@@H]4CC[C@]3(O)C2)[C@H](O)[C@H](O)[C@H]1O (some centres undefined),8%
COC(=O)C(Cl)C(=O)OC,27%
O=C(c1ccco1)N1CCC[C@@]2(CCN(Cc3ccncc3)C2)C1,-24%
CC(N)Cc1ccc2c(c1)OCO2 (centres undefined),4%
COc1c2c(cc3c1OCO3)C13C=CC(OC)CC1N(C2)CC3O (centres undefined),-7%
C/C=C/c1ccc2c(c1)OCO2,-18%&-3%
C[C@@H]1O[C@H](C[N+](C)(C)C)CS1,11%
CC[C@H](Oc1ccc(Cl)cc1)C(=O)OC1C[C@H]2CC[C@@H](C1)N2C (some centres undefined),?
NC[C@H](CP(=O)(O)O)c1ccc(Cl)cc1,-20%
NC1(c2ccccc2)CCCCC1,?
CC(C)CN1CC2(CCN(C(=O)Oc3ccccc3)CC2)C1,-22%
CN[C@@H]1C[C@H](c2ccc(Cl)c(Cl)c2)c2ccccc21,-32%
O=C(Nc1ccccc1)N1CC[C@@]2(CCCNC2)C1,-20%
CC(C)(O)C1O[C@H]2CC[C@@]3(C)[C@@](O)(CC[C@H]4Cc5c([nH]c6ccccc56)[C@@]43C)C2=CC1=O (some centres undefined),?
C[C@H]1CNCCc2ccc(Cl)cc21,20%
CC[C@H](C)[C@H]1O[C@]2(C=C[C@@H]1C)C[C@@H]1C[C@@H](C/C=C(\C)[C@@H](O[C@H]3C[C@H](OC)[C@@H](O[C@H]4C[C@H](OC)[C@@H](O)[C@H](C)O4)[C@H](C)O3)[C@@H](C)/C=C/C=C3\CO[C@@H]4[C@H](O)C(C)=C[C@@H](C(=O)O1)[C@]34O)O2,?
CCCC[N+]12C3CC(C(CC)[C@H]1O)[C@@H]1C(O)C4(C[C@@H]12)c1ccccc1N(C)C34 (some centres undefined),30%
Cc1c(C(=O)c2cccc3ccccc23)c2cccc3c2n1[C@H](CN1CCOCC1)CO3,-23%
CC(C)(O)[C@@H]1C2OC(=O)[C@@H]1[C@]1(O)C[C@H]3O[C@]34C(=O)O[C@H]2[C@]14C,-6%
CCCOC(=O)Cc1ccc(OCC(=O)N(CC)CC)c(OC)c1,-5%
CC(C)CC(N(C)C)C1(c2ccc(Cl)cc2)CCC1 (centres undefined),-13%
O=C(Nc1ccccc1-c1ccc(Cl)cc1)c1cccnc1Cl,8.9µM*

Next section.
Molecule,EPAC2 antag
CC(O)(CS(=O)(=O)c1ccc(F)cc1)C(=O)Nc1ccc(C#N)c(C(F)(F)F)c1 (centres undefined),-14%
N[C@H](CCCCCP(=O)(O)O)C(=O)O,-15%&-13%
CCC1(CCC(C)C)C(=O)NC(=O)NC1=O,-10%[239 µM]
N#CC(C#N)=Cc1cc(O)c(O)c([N+](=O)[O-])c1,?
CC(C)c1cc2c(c(O)c1O)[C@]1(C(=O)O)CCCC(C)(C)C1CC2 (some centres undefined),-5%
O=C(Oc1ccccc1)N1CCC2(CCCN(C(c3ccccc3)c3ccccc3)C2)CC1,-22%
CC1=CCCC2C1(C)CCC(C)C2(C)CC/C(C)=C/C[n+]1cn(C)c2c(N)ncnc21 (centres undefined),-15%
CN(N=O)c1cc(O)ccc1O,?
CC1=C2[C@H]3OC(=O)[C@@H](C)[C@@H]3CC[C@@]2(C)C=CC1=O,3%
CN1CC[C@@]2(CCCN(C(=O)c3csnn3)C2)C1,?
CC(=O)OC1CC(OC(C)=O)[C@]2(C)C(CC(OC(C)=O)[C@]3(C)C2CC[C@@]2(C)C(c4ccoc4)C(=O)C4O[C@]432)C1(C)C (some centres undefined),-18%
CC(C)(C)NCC(O)c1cc(Cl)c(N)c(Cl)c1 (centres undefined),-6%&-10%
CC(N)C(O)c1ccc(O)c(O)c1 (centres undefined),-20%&6%
COC[C@H]([C@@H](O)[C@@H](O)C(=O)NCC[C@@H](C)c1nc(/C=C/C[C@H]2OC3(C[C@H](O)[C@H]2C)OC([C@@H](C[C@@H](O)[C@@H](C)[C@@H](O)[C@@H](C)/C=C(C)/C(C)=C/C=C/C(C)=C\C#N)OC)[C@@H](OP(=O)(O)O)C3(C)C)co1)N(C)C (some centres undefined),-9%[5.85 µM]
C[C@H]1CC[C@@H]2[C@@H](C)[C@H]3[C@H](C[C@H]4[C@@H]5CC=C6CC(O[C@@H]7O[C@H](CO)[C@H](O)[C@H](O[C@@H]8O[C@H](CO)[C@@H](O)[C@H](O)[C@H]8O)[C@H]7O[C@H]7O[C@@H](C)[C@H](O)[C@@H](O)[C@H]7O)CC[C@]6(C)[C@H]5CC[C@]34C)N2C1 (some centres undefined),-6%
C[C@]12CC[C@H](O)CC1=CCC1C2CC[C@]2(C)C(=O)CC[C@@H]12 (some centres undefined),-13%
NC(Cc1cc(O)c(O)cc1O)C(=O)O (centres undefined),13µM*
CC(=O)NBr,-10%
C[C@H]1CCC/C=C/C2C[C@H](O)C[C@H]2[C@H](O)/C=C/C(=O)O1 (some centres undefined),4%[151 µM]
C[C@]12CC[C@H]3[C@@H](C[C@H](F)C4=CC(=O)CC[C@@]43C)[C@@H]1CC[C@@H]2O,-12%
N#CC(O[C@@H]1OC(COC2OC(CO)C(O)C(O)[C@@H]2O)C(O)C(O)C1O)c1ccccc1 (some centres undefined),-5%
C#CCN[C@H](C)Cc1ccccc1,-16%
O=CC=O,?
O=Cc1ccccc1,-1%&20%
CCC(=O)OC1(c2ccccc2)CCN(C)CC1,12%[239 µM]

Some of the entries so far, as labelled records:
Fc1ccc(C(OCCN2CCN(C/C=C\c3ccccc3)CC2)c2ccc(F)cc2)cc1
  EPAC2 antag: -36%
CC(=O)Oc1c2c(c(CC=C(C)C)c3c1C(=O)C1=CC4CC5C(C)(C)OC(C/C=C(\C)C(=O)O)(C4=O)[C@]15O3)OC(C)(CCC=C(C)C)C=C2 (some centres undefined)
  EPAC2 antag: 71µM*
Cc1[nH]c2ccc(O)cc2c1CCN
  EPAC2 antag: 9%&-12%&-19%
CNCCc1c[nH]c2ccc(O)cc12
  EPAC2 antag: 13%&-1%

Among those listed so far, these have four or more nitrogen atoms:
Molecule,EPAC2 antag
O=C(N/N=C/c1ccc([N+](=O)[O-])o1)c1cc([N+](=O)[O-])cc([N+](=O)[O-])c1O,?
CC1=CCCC2C1(C)CCC(C)C2(C)CC/C(C)=C/C[n+]1cn(C)c2c(N)ncnc21 (centres undefined),-15%
CN1CC[C@@]2(CCCN(C(=O)c3csnn3)C2)C1,?
COC[C@H]([C@@H](O)[C@@H](O)C(=O)NCC[C@@H](C)c1nc(/C=C/C[C@H]2OC3(C[C@H](O)[C@H]2C)OC([C@@H](C[C@@H](O)[C@@H](C)[C@@H](O)[C@@H](C)/C=C(C)/C(C)=C/C=C/C(C)=C\C#N)OC)[C@@H](OP(=O)(O)O)C3(C)C)co1)N(C)C (some centres undefined),-9%[5.85 µM]

Going on with the list.
Molecule | EPAC2 antag
COc1cc(CC(C)N)c(OC)cc1I (centres undefined) | -1%
CCCCCCC(C)(C)c1ccc([C@@H]2C[C@H](O)CC[C@@H]2CCCO)c(O)c1 | 28µM*
O=C1OC2(c3cc(Br)c(O)cc3Oc3c2cc(Br)c(O)[c]3[Hg])c2ccccc21 (centres undefined) | 169%[activator][56.6 µM]
CCN(CCCl)Cc1ccccc1Br | 7%
CCCCCCCCCCCCCCCCOC[C@@H](COP(=O)([O-])OCC[N+](C)(C)C)OC(C)=O | 13%[11.4 µM]
CC1C(=O)OC2O[C@]3(C)CC[C@H]4C(C)CCC1[C@]24OO3 (some centres undefined) | -28%
C[C@]12C=CC(=O)C=C1CC[C@@H]1[C@@H]2CC[C@@]2(C)[C@H]1CC[C@]2(C)O | 6%
C[C@H]1CC[C@@H]2N(C1)C[C@H]1[C@@H]3C[C@H]4[C@@H](CC(=O)[C@H]5C[C@@H](O)CC[C@@]54C)[C@@H]3CC[C@H]1[C@]2(C)O | 0%
COC(=O)N1CCN(C(=O)Cc2ccc(Cl)c(Cl)c2)C(CN2CCCC2)C1 (centres undefined) | -4%&13%
CCC1(CC)C(=O)NC(=O)NC1=O | 4%
NCC(CC(=O)O)c1ccc(Cl)cc1 (centres undefined) | -22%&-11%&-14%
CC(Cc1ccccc1)NC=O (centres undefined) | -8%

Carrying on.
Molecule | EPAC2 antag
C[N+](C)(C)CC#CCOC(=O)Nc1cccc(Cl)c1 | -1%&0%
O=C(O)CCCCCCNC1c2ccccc2CCc2ccccc21 | -24%
CN1CC[C@@]2(C)c3cc(OC(=O)Nc4ccccc4)ccc3N(C)[C@@H]12 | -1%&-16%
CC1(C)N(O)C(c2ccc(C(=O)O)cc2)=[N+]([O-])C1(C)C | -23%
O=[N+]([O-])c1cc(O)c(O)c([N+](=O)[O-])c1 | ?
CC(C)[C@]1(NC(=O)[C@@H]2C=C3c4cccc5[nH]cc(c45)C[C@H]3N(C)C2)O[C@@]2(O)C3CCCN3C(=O)[C@H](Cc3ccccc3)N2C1=O (some centres undefined) | 21%
C/C=C(\C)C(=O)OC1CC(OC(C)=O)[C@@]2(C(=O)OC)COC3C2[C@@]12CO[C@](O)(C(=O)OC)C2[C@](C)(C12OC1(C)C1CC2OC2OC=C[C@]21O)C3O (some centres undefined) | -11%
CNc1ccccc1C(=O)O | -3%
N[C@H](CP(=O)(O)O)C(=O)O | -18%
O=C(CN1CCCC1)c1ccccc1 | 6%
COc1ccc(Cc2nccc3cc(OC)c(OC)cc23)cc1OC | ?
COc1ccccc1N1CCNCC1 | -21%&3%&6%

Other structures:
Molecule | EPAC2 antag
CN1CCN(c2ccc3ccccc3n2)CC1 | -9%&-9%
CC1(C)S[C@@H]2[C@H](N)C(=O)N2[C@H]1C(=O)O | 6%
CC(=O)OC1CN2CCC1CC2 (centres undefined) | -22%
CC(C)N(CCC(C(N)=O)(c1ccccc1)c1ccccn1)C(C)C (centres undefined) | -23%&-28%&-4%&2%
COc1ccc2c(c1)C13CCCC[C@@H]1C(C2)N(C)CC3 (some centres undefined) | 10%
CNC(=O)O/N=C/C(C)(C)SC | -2%
CCOC(=O)[C@]12Cc3cc(C)ccc3[C@H]1N(Cc1ccccc1)C(=O)c1ccccc12 | ?
[N-]=[N+]=CC(=O)OC[C@H](N)C(=O)O | -9%
CC1(C)C(O)CC(=O)[C@]2(C)C1CC(=O)[C@]1(C)C2CC[C@@]2(C)C(c3ccoc3)OC(=O)C3O[C@@]321 (some centres undefined) | -15%
C(=C\c1ccccc1)/CN1CCN(CCOC(c2ccccc2)c2ccccc2)CC1 | ?
COc1cccc2c1C13CC[N+]4(CC5CC5)CO[C@]1(CCC(=O)C3)C4C2 | 6%
CN1C[C@H](CNC(=O)OCc2ccccc2)C[C@@H]2c3cccc4c3c(cn4C)C[C@H]21 | 2%&13%&-3%

Following part:
Molecule | EPAC2 antag
CP(=O)(O)CCCN | 0%&-21%
COc1cccc([C@@]2(O)CCCC[C@@H]2CN(C)C)c1 | 6%
Cc1c2ccncc2c(C)c2c1[nH]c1ccccc12 | ?
Cc1ccccc1-c1cncnc1NCCc1cnc[nH]1 | -8%
CCC1(C)CC(=O)NC(=O)C1 | -3%[56.6 µM]
